Screening results from PubChem BioAssay.
HPGD inh: HPGD (human) dehydrogenase inhibition. P15428. purified HPGD, NADH fluorescence kinetic, PGE2 substrate. Potency, µM, for the others: at the highest dose activity change, negative = inhibition, hits mostly inhibitors. hit rate 4.3% among 150,000. AID 894; active = well fitted inhibition curve with a large enough effect (not every such curve was filed as active); inconclusive = small, poorly fitted or top-dose-only effect, or another doubt; inactive = no such curve, though single readings can be large or run the other way;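 also: top concentration of the series not given in the record; plate controls included wells without enzyme; inactives centre near -10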
Target sequence (P15428 whole entry, looked up): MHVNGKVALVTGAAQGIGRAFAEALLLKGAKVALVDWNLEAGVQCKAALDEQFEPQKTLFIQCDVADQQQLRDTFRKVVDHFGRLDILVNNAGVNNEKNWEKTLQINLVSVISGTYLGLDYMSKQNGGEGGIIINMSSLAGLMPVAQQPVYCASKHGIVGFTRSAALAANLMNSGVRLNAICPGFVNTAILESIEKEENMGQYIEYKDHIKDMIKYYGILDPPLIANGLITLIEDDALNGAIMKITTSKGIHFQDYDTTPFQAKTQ
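20 nM HPGD preincubated 15 min at room temperature with compound in 50 mM Tris-HCl pH 8, 0.01% Tween 20. Started with 1 mM NAD+ and 30 uM prostaglandin E2; NADH fluorescence (360/450 nm) read 5 times over 30-s intervals, last minus first.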
The depositor's hits bear a star; ? = inconclusive; & = joins results of further samples; ! = repeats disagree. % is scaled to controls: 0 for no effect and ±100 for the full control effect; potency is read from the fitted curve at half-maximal effect. Some of the compounds tested; rates above refer to the full screens.

SMILES	HPGD inh
O=c1ccc2cc(O[C@H]3OC(CO)C(O)C(O)C3O)c(O)cc2o1 (stereo not given in full)	?
CCN1C[C@@]2(COC)CC[C@H](O)[C@@]34[C@@H]2C[C@@H]([C@@H]13)[C@]1(O)C[C@@H](OC)C2C[C@H]4[C@H]1[C@H]2OC(C)=O	3.0%
C=C1[C@@H]2C[C@@]3([C@H]1O)[C@H]1C[C@@H]4[C@@]5(C)CC[C@H](O)[C@]4([C@H]1N(CC)C5)[C@H]3C[C@H]2O	-0.7%
CC(=NCc1cccnc1)c1c(O)n(Cc2ccccc2)c(=O)[nH]c1=O	28.2µM*
CCn1c(C)c(C(=O)O)c2cc(OC)ccc21	-13.4%
N#CC1=C(N)Oc2n[nH]c(-c3cccs3)c2C1c1ccco1 (stereo not given)	?
Cc1cccc(NC(=S)N2CC3CC(C2)c2cccc(=O)n2C3)c1C (stereo not given)	2.7%
COc1cccc(OC)c1C(=O)Nc1nc(N)n(-c2ccccc2)n1	1.4%
CCOC(=O)c1c(-c2ccc(OC)cc2)oc2ccc(OC(=O)N(C)C)cc12	?
Cc1[nH]c2ccccc2c1C(=O)CN1CC=C(c2ccccc2)CC1	-1.3%
Cc1cc(C)cc(N2C(=O)NC(=O)/C(=C\c3cccn3-c3ccc(Cl)cc3)C2=O)c1	?
CC(C(=O)Nc1ccc(Br)cc1C(=O)c1ccccc1)N1CCOCC1 (stereo not given)	-1.3%
CN1C(=O)C(C2c3ccccc3C(=O)N2Cc2ccc([N+](=O)[O-])cc2)C(=O)N(C)C1=O (stereo not given)	-5.8%
Cc1c(N=Nc2c(O)[nH]c(=S)[nH]c2=O)c(=O)n(-c2ccccc2)n1C	28.2µM*
C=C(C)c1cccc(C(C)(C)NC(=O)NC2CN3CCC2CC3)c1 (stereo not given)	-5.3%
Cc1ccc(Cl)cc1N1CCN(CCN)CC1	9.4%
CCC(=O)CC(c1ccc([N+](=O)[O-])cc1)c1c(O)c2ccccc2oc1=O (stereo not given)	-5.9%
Cc1noc(C)c1C(=O)N1CCC[C@@]2(CCN(CC(C)C)C2)C1	3.0%
C/C(CCc1c[nH]c2ccccc12)=N\O	-26.9%
CCN1C[C@]2(COC)CC[C@H](O)[C@@]34[C@@H]5C[C@H]6[C@@H](OC)[C@H]5[C@](O)(C[C@@H]6OC)[C@@](O)([C@@H](OC)[C@H]23)[C@@H]14	-4.6%
CC1(C)C(c2ccccc2)=NC(c2cccnc2)N1O (stereo not given)	-9.7%
CN(C)CC#CCOCCOCCC#N	-14.8%
C=CC1CC=CCC1 (stereo not given)	-9.8%
COc1ccccc1N1C(=O)NC(=O)C2(Cc3cc(C)ccc3N(C)C2)C1=O (stereo not given)	-1.4%
CC(=O)c1ccc(Oc2ccc(C(=O)c3ccc(C)c(C)c3)cc2[N+](=O)[O-])cc1	7.08µM*
COC(=O)C1(C)C=C2C(=C(C)C(=O)C2C)CN1 (stereo not given)	-11.9%
Cc1nc2c(c(C)nn2-c2ccccc2)c(C)c1CCC(=O)N1CCC2(CC1)OCCO2	?
CC1CN(c2ccc([N+](=O)[O-])c3cccnc23)CC(C)N1 (stereo not given)	-11.2%
CCCC(=O)NC(Oc1ccccc1Cl)C(Cl)(Cl)Cl (stereo not given)	-4.0%
C=CCn1c(O)c(C(C)=NCCN2CCCCC2)c(=O)[nH]c1=O	-6.5%
NCCc1c[nH]c2ccc(O)cc12	-3.0%
FC(F)(F)c1ccc2c(c1)N(CCCN1CCN(CCCl)CC1)c1ccccc1S2	?
C=CCOc1ccc(CC2C(=O)N(C)C(=O)N(C)C2=O)cc1	-2.2%
CC(C)(C)c1cc(O)ccc1O	-2.4%&-3.9%&0.8%
CCC1C2CC3C4N(C)c5ccccc5[C@]45CC(C2C5O)N3C1O (stereo not given in full)	-2.1%
CCOP(=O)(OCC)c1nc(-c2ccccc2)oc1NCc1ccccc1	?

Two successive compounds out of the list so far, for reference:
SMILES	HPGD inh
O=c1ccc2cc(O[C@H]3OC(CO)C(O)C(O)C3O)c(O)cc2o1 (stereo not given in full)	?
CCN1C[C@@]2(COC)CC[C@H](O)[C@@]34[C@@H]2C[C@@H]([C@@H]13)[C@]1(O)C[C@@H](OC)C2C[C@H]4[C@H]1[C@H]2OC(C)=O	3.0%

(more compounds)
SMILES	HPGD inh
Cc1nc2c(-c3ccccc3)c(C)nn2c(C)c1CCC(=O)N1CCC2(CC1)OCCO2	-15.6%
Cc1ccc(-c2nc3ccccc3c(=O)n2-c2ccccn2)cc1	1.3%
Nc1ccc(Cc2ccc(N)c(Cl)c2)cc1Cl	-5.3%
CCOC(=O)C(=O)NC1CCSC1=O (stereo not given)	-2.0%
CCOC(=O)c1ccc(NC(=O)C2C3C=CC(O3)C2C(=O)O)cc1 (stereo not given)	-8.8%
CC(C)[C@@]1(NC(=O)[C@@H]2C[C@@H]3c4cccc5[nH]cc(c45)C[C@H]3N(C)C2)O[C@@]2(O)[C@@H]3CCCN3C(=O)[C@H](Cc3ccccc3)N2C1=O	-4.3%&-15.0%
O=c1[nH]c(=O)n(Cc2ccccc2)c(O)c1C=NCCCn1ccnc1	-21.6%
CCCCC/C=C\C/C=C\C/C=C\C/C=C\CCCC(=O)O	15.8µM*!
CN(C)CCN=Cc1c(O)n(CCC2=CCCCC2)c(=O)[nH]c1=O	-10.6%
CC1(C)CCC(C)(C)c2c1ccc(O)c2Cc1c(O)ccc2c1C(C)(C)CCC2(C)C	-10.2%
COc1cccc(CN2CCCCC2c2cccnc2)c1 (stereo not given)	-16.0%
Cc1ccc(-n2c(O)c(C=NCCN3CCOCC3)c(=O)[nH]c2=O)cc1	-11.2%

Quoted at random: 3 records from the list
SMILES	HPGD inh
CC(C(=O)Nc1ccc(Br)cc1C(=O)c1ccccc1)N1CCOCC1 (stereo not given)	-1.3%
Nc1ccc(Cc2ccc(N)c(Cl)c2)cc1Cl	-5.3%
CCOC(=O)c1ccc(NC(=O)C2C3C=CC(O3)C2C(=O)O)cc1 (stereo not given)	-8.8%

Continued.
SMILES	HPGD inh
CCC(C)C12CN3CCN(CC(C)(C3)C1=O)C2 (stereo not given)	-4.3%
CP(C)(=O)CCC(=O)O	-12.9%
N[C@@H](Cc1c[nH]c2ccccc12)c1nnc(SCc2ccccc2F)o1	-13.2%
C=C1N2CCC(CC2)C1(O)c1ccc(C)c(C)c1 (stereo not given)	-19.9%
NC(=O)Nc1ccc(C(=O)OCC(=O)Nc2ccc(Cl)cc2C(=O)c2ccccc2)cc1	-4.5%
CC(C)c1nccn1Cc1ccc(Cl)cc1Cl	-0.6%
CC1=C(C(=O)N2CCC3(CC2)OCCO3)C2(CCC(C)CC2)OC1=O (stereo not given)	-15.2%
C=CC(=O)OC	1.1%
Cc1ccc(NC(=S)NCC2CCCO2)cc1 (stereo not given)	25.1µM*
Cc1ccc2cc3cc(C(=O)N4CCC5(CC4)OCCO5)oc3nc2c1	?
Clc1ccc(C(c2ccc(Cl)cc2)C(Cl)Cl)cc1	-11.1%
Cc1cccc(C)c1NC1=NCCCCS1	-15.2%
COc1ccc(CC2c3cc(OC)c(OC)cc3CCN2C)cc1OC (stereo not given)	-5.8%&-0.4%
CC/C(=N\Nc1ccccc1)c1c(O)n(C)c(=O)n(C)c1=O	-9.1%
COCCOC(=O)C1=C(C)OC(N)=C(C(=O)OC)C12C(=O)Nc1ccccc12 (stereo not given)	1.3%
O=C1c2ccccc2C(=O)N1Cc1nc2ccccc2c(=O)n1-c1cccnc1	-3.1%
Cc1ccc(N2C(=O)NC(=O)C(CCc3ccncc3)(Cc3cccc(Cl)c3Cl)C2=O)cc1 (stereo not given)	-5.3%
CC(C)=CCCC1(C)C=Cc2c(O)c3c(c(CC=C(C)C)c2O1)OC12C(=CC4CC1C(C)(C)OC2(C/C=C(/C)C(=O)O)C4O)C3=O (stereo not given)	?
CNC(=O)Oc1ccc(-c2cn3cc(C)ccc3n2)cc1	?
CCn1cnc2c(Nc3cccc(Cl)c3)nc(N[C@@H]3CCCC[C@@H]3N)nc21	-10.3%
CC(=O)OC1N=C(c2ccc(Cl)cc2)c2cc(Br)ccc2NC1=O (stereo not given)	-6.6%
O=C(Oc1c(Cl)cc(Cl)c2ccccc12)N1CCCCC1	-2.2%
CN(C)CCN=Cc1c(O)n(-c2cccc3ccccc23)c(=O)[nH]c1=O	-4.2%
NNc1nncn1N	-11.2%
CC(=O)OC1(c2ccccc2)CCN(C)C(C)C1C (stereo not given)	-2.3%
CN(C(=O)Cc1ccccc1)[C@H](CN1CCCC1)c1ccccc1	-7.4%
CCCCn1c(O)c(C(C)=NCC2CCCO2)c(=O)[nH]c1=O (stereo not given)	-2.2%
Cc1ccccc1-n1c(O)c(C=NCCN2CCOCC2)c(=O)[nH]c1=O	-2.5%
CCN(C(=O)CSc1ncccc1C(=O)Oc1cccc([N+](=O)[O-])c1)c1cccc(C)c1	?
CCOCCN1CCN(c2nnc3n2-c2ccc(Cl)cc2C(c2ccccc2Cl)=NC3)CC1	-10.8%
Fc1ccc(C2=CCN(C(c3ccc(Cl)cc3)c3nnnn3Cc3ccccc3)CC2)cc1 (stereo not given)	-11.4%
Nc1ccc(-c2ccccc2)cc1	-13.7%
CC1(C)CC(=O)C(C=NCCN2CCN(C(=O)Cc3ccc(Cl)cc3)CC2)=C(O)C1	-3.1%
CN1C[C@H](C(=O)N[C@]2(C)O[C@@]3(O)[C@@H]4CCCN4C(=O)[C@H](Cc4ccccc4)N3C2=O)C=C2c3cccc4[nH]cc(c34)C[C@H]21	?
COc1ccc(OC)c(CC(=O)O)c1	-11.8%
C=CC(=O)OCCO	-1.1%
O=C(c1ccncc1)C12CN3CN(CN(C3)C1)C2	7.7%
O=c1[nH]c(=O)n(-c2cccc(Cl)c2)c(O)c1C=NCCCN1CCOCC1	-20.9%
CCN(CC)c1ccc(N=Cc2c(O)n(CCC3=CCCCC3)c(=O)[nH]c2=O)cc1	-15.8%
O=C1NC(=O)C2(Cc3ccccc3N3CCOCC32)C(=O)N1c1ccccc1 (stereo not given)	-10.9%
N[C@@H](CCCCP(=O)(O)O)C(=O)O	-10.7%
COc1ccc(CCn2c(O)c(C=NCc3cccnc3)c(=O)[nH]c2=O)cc1OC	-7.3%
C=CC(=O)OCC(CC)CCCC (stereo not given)	-5.2%
ClC(Cl)Br	-6.1%
CCCN(CCC)[C@H]1CCc2c(F)ccc(O)c2C1	-13.5%
CC1CCN(C(=O)CCl)CC1	3.6%
O=c1[nH]c(=S)n(Cc2ccc(F)cc2)c(O)c1C=NCc1cccnc1	?
O=[N+]([O-])c1cccc2c([N+](=O)[O-])cccc12	-2.4%
CSc1ccc2c(c1)c(CCN)c(C)n2Cc1ccccc1Cl	-10.4%
CCOC(=O)c1ccc2[nH]c(-c3ccc(S(=O)(=O)F)cc3)cc(=O)c2c1	-9.3%
CCCCNc1ccncc1S(=O)(=O)NC(=O)NC(C)C	-2.8%
C[N+]1(C)C2CC(OC(=O)C(CO)c3ccccc3)CC1C1OC12 (stereo not given)	-7.4%&-5.1%&-1.2%
CCC(=O)c1c(O)n(C2CCCCCC2)c(=O)[nH]c1=O	-7.7%
Cn1c(O)c(C=NCc2cccs2)c(=O)n(C)c1=O	-3.7%
O=C(c1ccco1)c1cn(Cc2ccc(Cl)cc2)c2ccccc12	-14.7%
O=C(CF)NC(Nc1cccc2cccnc12)C(Cl)(Cl)Cl (stereo not given)	-8.8%

Among those listed so far, these contain sulfur.
SMILES	HPGD inh
N#CC1=C(N)Oc2n[nH]c(-c3cccs3)c2C1c1ccco1 (stereo not given)	?
Cc1cccc(NC(=S)N2CC3CC(C2)c2cccc(=O)n2C3)c1C (stereo not given)	2.7%
Cc1c(N=Nc2c(O)[nH]c(=S)[nH]c2=O)c(=O)n(-c2ccccc2)n1C	28.2µM*
FC(F)(F)c1ccc2c(c1)N(CCCN1CCN(CCCl)CC1)c1ccccc1S2	?
CCOC(=O)C(=O)NC1CCSC1=O (stereo not given)	-2.0%
N[C@@H](Cc1c[nH]c2ccccc12)c1nnc(SCc2ccccc2F)o1	-13.2%
Cc1ccc(NC(=S)NCC2CCCO2)cc1 (stereo not given)	25.1µM*
Cc1cccc(C)c1NC1=NCCCCS1	-15.2%
CCN(C(=O)CSc1ncccc1C(=O)Oc1cccc([N+](=O)[O-])c1)c1cccc(C)c1	?
O=c1[nH]c(=S)n(Cc2ccc(F)cc2)c(O)c1C=NCc1cccnc1	?
CSc1ccc2c(c1)c(CCN)c(C)n2Cc1ccccc1Cl	-10.4%
CCOC(=O)c1ccc2[nH]c(-c3ccc(S(=O)(=O)F)cc3)cc(=O)c2c1	-9.3%
CCCCNc1ccncc1S(=O)(=O)NC(=O)NC(C)C	-2.8%
Cn1c(O)c(C=NCc2cccs2)c(=O)n(C)c1=O	-3.7%
